H5N1 antiviral – MDCK cell protection from H5N1 avian flu; 96,000 tested, 0.07% active; cytopathic effect, luminescence, 72 h; active compounds read high; no value below 0 was filed and about half of the inactive calls have no number; reference of the scale not given here; inhibition, % at 50 µM; AID 740, 2007; in the data active = inhibition above about 25%
Numbers without * were called inactive; i = inactive.

SMILES	H5N1 antiviral
CCC(C)C1N=C(c2ccccc2)c2cc(Cl)ccc2N(CC(=O)NCc2ccco2)C1=O (configuration not stated)	0.7
O=c1[nH]c(CSc2nnc(-c3ccncc3)n2Cc2ccco2)nc2ccccc12	1.9
O=S(=O)(Nc1ccc(S(=O)(=O)Nc2cccc3ccccc23)cc1)c1ccccc1	i
Cc1oc(C)c(C(=O)O)c1COc1ccc(C(=O)O)cc1	0.4
Cc1ccc([N+](=O)[O-])cc1NC(=O)CCCOc1ccccc1	1.4
O=C(CSc1n[nH]c(-c2ccccc2)n1)c1ccccc1	1.3
COC(=O)n1c(SC)nc2ccccc21	i
CN1CCN(CCCNC(=O)C2CC(=O)N(C3CCCCC3)C2)CC1 (configuration not stated)	0.3
Cn1c(=O)n(CC(=O)N2CCN(c3nnc(-c4ccccc4)c4ccccc34)CC2)c2ccccc21	0.5
NC(=O)C1CCN(C2CC(=O)N(Cc3cccs3)C2=O)CC1 (configuration not stated)	0.2
COc1ccccc1CNc1cc(CSc2ccc(Cl)cc2)nc(C)n1	0.6
Cc1ccc(CS(=O)(=O)Cc2ccc(C(=O)NCc3ccccn3)o2)cc1	0.1
O=C(c1cc(-c2ccc(Cl)c(Cl)c2)on1)N1CCCCC1	0.6
COc1ccccc1-c1cn[nH]c(=S)n1	i
O=[N+]([O-])c1ccc(Sc2ccccc2Cl)nc1	3.1
Cc1nn(C)c(C(=O)NNC(=S)Nc2ccc(Cl)cc2)c1[N+](=O)[O-]	0.2
COCCn1c(N)c(NCc2ccccc2)c(=O)n(CC(=O)Nc2cc(C)ccc2C)c1=O	i
C/C(=N/NC(=O)CNc1ccc(C)cc1)c1ccc(Br)s1	0.0
Cc1cc(C(C)(C)C)cc(S(=O)(=O)Nc2cccc(C(=O)O)c2)c1C	1.8
Cc1ccc(CN(C)C(=O)c2ccccc2Oc2ccccc2)o1	0.2
COC(=O)C(C)n1cnc2c(cnn2-c2ccc(Cl)cc2)c1=O (configuration not stated)	1.3
Cc1cccc(Oc2coc3cc(OC(=O)c4cc5ccccc5oc4=O)ccc3c2=O)c1	i
Oc1ccc(Cl)cc1-c1cc(-c2cccc(Br)c2)n[nH]1	1.8
CC(=O)NC12CC3CC(C1)CC(C(=O)Nc1nccs1)(C3)C2	0.4

An excerpt of these results, with bars between the fields:
smiles | H5N1 antiviral
CCC(C)C1N=C(c2ccccc2)c2cc(Cl)ccc2N(CC(=O)NCc2ccco2)C1=O (configuration not stated) | 0.7
O=c1[nH]c(CSc2nnc(-c3ccncc3)n2Cc2ccco2)nc2ccccc12 | 1.9
O=S(=O)(Nc1ccc(S(=O)(=O)Nc2cccc3ccccc23)cc1)c1ccccc1 | i
Cc1oc(C)c(C(=O)O)c1COc1ccc(C(=O)O)cc1 | 0.4
Cc1ccc([N+](=O)[O-])cc1NC(=O)CCCOc1ccccc1 | 1.4
O=C(CSc1n[nH]c(-c2ccccc2)n1)c1ccccc1 | 1.3
COC(=O)n1c(SC)nc2ccccc21 | i
CN1CCN(CCCNC(=O)C2CC(=O)N(C3CCCCC3)C2)CC1 (configuration not stated) | 0.3
Cn1c(=O)n(CC(=O)N2CCN(c3nnc(-c4ccccc4)c4ccccc34)CC2)c2ccccc21 | 0.5
NC(=O)C1CCN(C2CC(=O)N(Cc3cccs3)C2=O)CC1 (configuration not stated) | 0.2
COc1ccccc1CNc1cc(CSc2ccc(Cl)cc2)nc(C)n1 | 0.6
Cc1ccc(CS(=O)(=O)Cc2ccc(C(=O)NCc3ccccn3)o2)cc1 | 0.1
O=C(c1cc(-c2ccc(Cl)c(Cl)c2)on1)N1CCCCC1 | 0.6
COc1ccccc1-c1cn[nH]c(=S)n1 | i
O=[N+]([O-])c1ccc(Sc2ccccc2Cl)nc1 | 3.1
Cc1nn(C)c(C(=O)NNC(=S)Nc2ccc(Cl)cc2)c1[N+](=O)[O-] | 0.2
COCCn1c(N)c(NCc2ccccc2)c(=O)n(CC(=O)Nc2cc(C)ccc2C)c1=O | i
C/C(=N/NC(=O)CNc1ccc(C)cc1)c1ccc(Br)s1 | 0.0
Cc1cc(C(C)(C)C)cc(S(=O)(=O)Nc2cccc(C(=O)O)c2)c1C | 1.8
Cc1ccc(CN(C)C(=O)c2ccccc2Oc2ccccc2)o1 | 0.2
COC(=O)C(C)n1cnc2c(cnn2-c2ccc(Cl)cc2)c1=O (configuration not stated) | 1.3
Cc1cccc(Oc2coc3cc(OC(=O)c4cc5ccccc5oc4=O)ccc3c2=O)c1 | i

Back to the main list with the two entries that preceded the break.
SMILES	H5N1 antiviral
Oc1ccc(Cl)cc1-c1cc(-c2cccc(Br)c2)n[nH]1	1.8
CC(=O)NC12CC3CC(C1)CC(C(=O)Nc1nccs1)(C3)C2	0.4
O=S1(=O)N=C(Nc2nc3c(s2)CCCC3)c2ccccc21	i
COCCCN1C(=O)C(=O)/C(=C(/O)c2ccc(OC)cc2)C1c1ccc(O)c(OC)c1 (configuration not stated)	0.8
COc1ccccc1-n1c(SCC(N)=O)nnc1-c1ccccc1	0.5
CCOc1ccc(NC(=O)c2ccccc2NC(=O)CN(C)CC(=O)Nc2ccc(C)cc2)cc1	0.1
Cc1ccc(OCCCC(=O)Nc2ccc(N3CCOCC3)cc2)c(C)c1	0.2
CCn1c(C(C)NC(=O)c2ccc(OC)c(OC)c2)nc2ccccc21 (configuration not stated)	0.9
Cc1cc2cc(CCNC(=O)CC(C)C)c(=O)[nH]c2cc1C	1.8
Cc1ccc(CCNC(=O)C2CCC(=O)N2C(C)C)cc1 (configuration not stated)	0.4
Cc1oc(-c2cccc(Cl)c2)[n+]([O-])c1C	i
Fc1ccccc1N1CCN(Cc2ccc3c(c2)OCO3)CC1	i
O=C(CN1C(=O)c2ccccc2C1=O)Nc1cccnc1	0.4
COc1ccc(NC(=O)c2cc3n(n2)C(C(F)(F)F)CC(c2ccc(OC)cc2)N3)cc1 (configuration not stated)	i
CCC(=O)NC(=S)N1CCN(c2ccc([N+](=O)[O-])cc2Cl)CC1	0.6
Cc1cc(C#N)c2ccccc2n1	0.5
Cc1cccc(NC(=S)NNC(=O)CCn2cc(C)cn2)c1	i
COc1ccc2[nH]cc(C(=O)CN3CCC(C)CC3)c2c1	i
CCOC(=O)c1c(C)oc2cc(Br)c(O)c(Br)c12	i
Cn1c(=O)c2c(nc(CN3CCC(C(N)=O)CC3)n2Cc2ccccc2F)n(C)c1=O	0.8
CCOC(=O)C1=C(C)NC(C)=C(C(=O)OCC)C1C(=O)OC1CCOC1=O (configuration not stated)	0.1
Cc1nn(Cc2ccccc2Cl)c(C)c1NC(=O)c1cc(-c2ccc(F)cc2)on1	i
CC1CCCN(C/C(O)=C(\C#N)c2nc3ccccc3[nH]2)C1 (configuration not stated)	1.5
COC(=O)c1ccc(NC(=O)N2CCOCC2)cc1	i
COC(=O)CC1C(=O)NCCN1C(=O)Nc1ccccc1 (configuration not stated)	0.5
CCOC(=O)C(C)(C)Sc1nc2c(cnn2-c2ccc(Cl)cc2)c(=O)[nH]1	0.4
COc1ccccc1NS(=O)(=O)c1ccccc1C#N	1.9
N#CC1=C(N)OC2=C(C(=O)CCC2)C1c1ccccc1 (configuration not stated)	i
CCOC(=O)c1sc(C)c2c1NC(C)(c1cccs1)NC2=O (configuration not stated)	0.7
Cc1ccc(-c2cc(C(=O)NCc3ccccn3)c3ccccc3n2)cc1C	1.9
COC(=O)c1cccc(NC(=O)CSc2nnc(COc3cccc(C)c3)n2C)c1	0.2
COc1ccc(Cl)cc1NC(=O)C1CCCN(c2cc(C)nc3ncnn23)C1 (configuration not stated)	0.4
COc1ccc(OC)c(CN2C(=O)CCC2(C)C(=O)NC2CCCCCC2)c1 (configuration not stated)	0.2
CCOc1ccc(-n2nnc3c(=O)n(CC(=O)N4CCCc5ccccc54)cnc32)cc1	i
CCn1c(=O)cc(SCC(=O)NCc2ccco2)c2ccccc21	0.3
COc1ccc(-c2cc(C(F)(F)F)nc(SCC(=O)N3CCOCC3)n2)cc1OC	i
NC(=O)C1(N2CCCCC2)CCN(C(=O)c2cccn3c(=O)c4cc(Cl)ccc4nc23)CC1	0.6
COc1cc(NS(=O)(=O)c2ccc(Br)cc2)c(OC)cc1NC(=O)c1ccco1	0.7
O=C(Nc1ccc(C(F)(F)F)cc1)c1cc(-c2cccnc2)nc2ccc(Br)cc12	i
COc1ccc(N=C2C(=Nc3ccc(OC)cc3)N(c3ccc(N(C)C)cc3)C(=S)N2c2ccc(OC)cc2)cc1	i
COc1ccc(S(=O)(=O)Cc2ccc(C(=O)N3CCCC3)o2)cc1	1.1
COc1cccc(C(=O)N2CCN(S(C)(=O)=O)CC2)c1	0.4
CCC(CC)NC(=O)COC(=O)c1cccc(C)c1O	i
COc1cc(OC)cc(C(=O)N[C@H](C(=O)NC23CC4CC(CC(C4)C2)C3)C(C)C)c1	i
O=C(COC(=O)c1ccc[nH]c1=O)NCC1CCCO1 (configuration not stated)	i
CCCCCN(C(=O)NC(=O)Nc1ccccc1C)S(C)(=O)=O	i
COCc1cc(C)nc(SCC(=O)Nc2cccc(C)c2)c1C#N	i
CCOC(=O)c1csc(NC(=O)CSc2nnnn2-c2ccc(OCC)cc2)n1	1.3
Cc1cc2c(OCC(O)CNC(C)(C)C)cccc2[nH]1 (configuration not stated)	i
Cc1ccc(S(=O)(=O)N(C)c2cc(S(=O)(=O)N3CCC(C)CC3)c(C)cc2C)cc1	3.8
CCOC(=O)c1c(C)nc2c(c(SC)nn2-c2ccccc2)c1N	i
Cc1ccc(S(=O)(=O)NCCC(=O)NCc2ccc3c(c2)OCO3)cc1C	0.1
O=C(CCN1C(=O)C2C3C=CC(C3)C2C1=O)Nc1ccc(F)cc1 (configuration not stated)	i
CC(=O)NC(C)C12CC3CC(CC(CC(=O)O)(C3)C1)C2 (configuration not stated)	0.7
COc1ccc(S(=O)(=O)N2CCC(c3cc(-c4cccc5ccccc45)n[nH]3)CC2)cc1	i
CC(C)=CC(=O)NCCc1ccccc1	0.3
ON1C(c2ccccc2C(F)(F)F)N(O)[C@H]2CCCC[C@H]21 (some centres not stated)	i
CCOc1cc(C(=O)Nc2ccon2)cc(OCC)c1OCC	i
CCC(OC(=O)C(NC(=O)c1ccccc1)c1ccccc1)C(=O)Nc1cc(C)on1 (configuration not stated)	i
COCC(C)n1c(SCC(=O)NCCC2=CCCCC2)nc2ccccc2c1=O (configuration not stated)	1.1
CCC(=O)Nc1ccc(C(=O)NNC(=O)c2cccs2)cc1	i
COC(=O)c1ccc(NC(=S)Nc2ccccc2)cc1	0.1
The listing continues:
SMILES	H5N1 antiviral
Cn1c(=N)n(CC(=O)C(C)(C)C)c2ccccc21	0.8
O=C(Nc1ccc2c(c1)OCCO2)N1CCN(c2ccccc2)CC1	i
CCOC(=O)N1CCC(Nc2c(NCCCN(CC)Cc3ccccc3)c(=O)c2=O)CC1	0.6
Cc1cc(C(=O)CSc2nnnn2-c2ccccc2)c(C)n1CC1CCCO1 (configuration not stated)	0.4
CCc1ccccc1Nc1nc(N)nc(COC(=O)c2cccn2C)n1	i
CCCCN1CNC(=S)N(c2cc(C)ccc2C)C1	i
O=C(c1cnn2c(C(F)F)cc(-c3ccccc3)nc12)N1CCCc2ccccc21	0.1
Clc1ccc(NCn2cncn2)nc1	i
CC(C(=O)c1cn(C)c2ccccc12)c1ccccc1 (configuration not stated)	i
CCCC(=O)Nc1ccc(C(=O)NNC(=O)c2ccco2)cc1	i
Cc1ccc(N(CC(=O)NCc2cccnc2)S(C)(=O)=O)cc1C	0.7
CCOC(=O)c1cnn(-c2nc(C)cc(C)n2)c1N	i
O=C1C=C(c2ccc(Cl)cc2)OC2(CCCC2)O1	2.0
CCCCC1(C)NC(=O)N(CC(=O)Nc2ccc(S(=O)(=O)N3CCOCC3)cc2)C1=O (configuration not stated)	0.9
COC(=O)CCn1nnc(-c2cccs2)n1	i
O=C(Nc1ccccc1)c1cccc(S(=O)(=O)NCc2ccco2)c1	i
Nn1c(SCC(=O)N2CCN(S(=O)(=O)c3ccccc3)CC2)nnc1-c1cccs1	0.1
COc1ccc(C2SCC(=O)N2c2c(C)n(C)n(-c3ccccc3)c2=O)cc1 (configuration not stated)	i
COc1ccc(OC(=O)c2ccncc2)cc1	i
N#Cc1c(NCCN)nc(-c2ccccc2)c2c1CCCC2	i
CCOC(=O)c1[nH]c(CSc2nnnn2-c2ccccc2C)c(C(=O)OCC)c1C	0.3
O=C(c1ccco1)N1CCN(C2CC(=O)N(c3ccccc3)C2=O)CC1 (configuration not stated)	i
COC(=O)c1ccc(C2C(C(=O)OCC(C)C)=C(C)N=C3SCCC(=O)N32)cc1 (configuration not stated)	2.3
Oc1ccc2ccccc2c1/C=N/c1nc2c(s1)CCCC2	i
Cc1oc(C(C)(C)C)cc1C(=O)Nc1ccc(C(=O)O)cc1	0.1
CCOC(=O)c1sc(=S)n(Cc2ccccc2)c1N	i
Clc1ccc(-c2noc(CCCc3ccccc3)n2)cc1	i
O=C(Nc1nnc(SCc2ccc(Cl)cc2)s1)C1CCCO1 (configuration not stated)	i
NC(=O)C1(N2CCCCC2)CCN(c2ccc3nnc(-c4ccccc4)n3n2)CC1	3.6
O=C(CSc1nnc(-c2ccncc2)n1Cc1ccco1)OC1CCCCC1	0.6
Cc1ccc(CCNC(=O)NC(C)(C)C)cc1	i
CCOc1ccc2[nH]c(=O)c(CN(Cc3ccccc3OC)C(=O)c3ccccc3)cc2c1	i
CN1C(=O)C2(c3ccccc31)N(C)CC(c1ccccn1)C21SC(=S)N(Cc2ccco2)C1=O (configuration not stated)	1.1
CCC(C)(C)n1nnnc1CN(Cc1cc2cc(OC)c(OC)cc2[nH]c1=O)C1CCCC1	i
CCCCOC(=O)c1ccc(Nc2ncnc3nc[nH]c23)cc1	0.7
NC(=O)CSc1nnc([C@@H](N)Cc2c[nH]c3ccccc23)o1	i
N#CC1(Cc2ccccc2Cl)c2ccccc2C=CN1C(=O)c1ccccc1 (configuration not stated)	0.9
Cc1c(Cl)c([N+](=O)[O-])nn1CCCC(=O)N1CCN(c2ccccc2)CC1	1.7
O=C(N/N=C\c1ccc(Cl)s1)c1cccs1	5.9
CCc1ccc(CN2C(=O)CCC2(C)C(=O)NC2CCCC2)cc1 (configuration not stated)	1.0
Cn1c2c(c(=O)n(C)c1=O)C(NS(=O)(=O)c1ccc(Cl)cc1)(C(F)(F)F)C(=O)N2 (configuration not stated)	0.7
CCOC(=O)c1c(NC(=O)CSc2nnc(CNc3ccc(F)cc3)o2)sc(C(C)=O)c1C	i
CCOC(=O)CC(C#N)c1cn(C)c2ccccc12 (configuration not stated)	1.6
O=c1oc(-c2ccccc2Cl)nc2ccsc12	2.4
CCOC(=O)CN1C(=O)C2Cc3ccccc3CN2C1=S (configuration not stated)	i

Source: PubChem BioAssay

Not all compounds are listed; count on the stated rates, not on these rows.
